# Screens from PubChem BioAssay.
# rRNA inh HTS – selective bacterial rRNA inhibition in E. coli; E. coli WT GFP vs humanized-ribosome RFP mutants, fluorescence, 24 h; active compounds read low; DMSO median 0, no signal -100; GFP signal change (wild-type ribosome), % (no concentration beside the values); 350,000 compounds, 1.6% hits; AID 720706;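 active = significant combined selectivity score with lowered wild-type GFP, culture density cut under 30%, mutant RFP and density less affected; inactive = any of these conditions unmet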; note: one replicate is shown; some compounds called inactive have numbers as strong as hits
# HNF4A DNA FP – change in binding of human HNF4 alpha to DNA; P41235; activity change, % at 10 µM; 360,000 compounds, 0.3% hits; HNF4a-FITC DNA binding, fluorescence polarization, 1 h; in the data active = activity change above about 30%, passing the limit was not always enough;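 note: controls were the assay level and a saturating level of protein; the project sought stronger binding though the title names inhibitors; some compounds called inactive have numbers as strong as hits; positive values seem to mean higher polarization but the record does not say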
# Target sequence (P41235 whole entry, looked up): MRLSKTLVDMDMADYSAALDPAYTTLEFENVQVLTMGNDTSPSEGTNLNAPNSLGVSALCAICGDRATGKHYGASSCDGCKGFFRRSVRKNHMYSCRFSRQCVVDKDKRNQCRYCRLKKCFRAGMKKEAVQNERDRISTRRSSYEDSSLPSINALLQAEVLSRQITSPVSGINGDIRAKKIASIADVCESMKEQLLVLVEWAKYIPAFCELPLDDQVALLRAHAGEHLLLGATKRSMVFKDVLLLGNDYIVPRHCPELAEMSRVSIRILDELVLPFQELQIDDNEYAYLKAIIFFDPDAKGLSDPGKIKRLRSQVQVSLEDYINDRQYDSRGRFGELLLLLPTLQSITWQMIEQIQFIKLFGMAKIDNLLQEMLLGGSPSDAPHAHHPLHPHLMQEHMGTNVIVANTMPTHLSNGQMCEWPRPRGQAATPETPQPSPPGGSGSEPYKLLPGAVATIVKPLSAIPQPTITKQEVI
# AF4-AF9 inh – inhibitors of human MLL-AF4/AF9 interaction. P42568. AlphaScreen, biotin-AF4 peptide binding to FLAG-AF9. inhibition, % at 10 µM. 350,000 compounds, 0.47% hits. AID 651704;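 active = every replicate reaching a set inhibition limit, whatever the replicate mean, cut at about 25% in these data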;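 note: 0% = plate neutral control median and 100% = total signal loss; the record names both 10 and 1 µM as test concentration; the first replicate is given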
# Target sequence (P42568 whole entry, looked up): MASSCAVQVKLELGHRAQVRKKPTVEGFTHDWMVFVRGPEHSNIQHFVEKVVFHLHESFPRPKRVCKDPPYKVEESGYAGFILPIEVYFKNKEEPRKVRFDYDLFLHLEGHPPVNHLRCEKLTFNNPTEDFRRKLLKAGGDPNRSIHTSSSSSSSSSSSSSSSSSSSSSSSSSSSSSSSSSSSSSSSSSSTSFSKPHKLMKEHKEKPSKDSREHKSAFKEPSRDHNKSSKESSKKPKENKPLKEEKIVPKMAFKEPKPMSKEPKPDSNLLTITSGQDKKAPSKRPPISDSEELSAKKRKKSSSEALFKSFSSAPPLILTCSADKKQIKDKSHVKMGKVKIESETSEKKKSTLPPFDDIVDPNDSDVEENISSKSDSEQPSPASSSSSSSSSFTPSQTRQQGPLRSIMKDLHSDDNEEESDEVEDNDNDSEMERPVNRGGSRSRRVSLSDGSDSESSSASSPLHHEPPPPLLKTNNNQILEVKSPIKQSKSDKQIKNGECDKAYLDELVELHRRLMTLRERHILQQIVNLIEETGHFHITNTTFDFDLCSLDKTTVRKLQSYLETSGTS
# ALR inh – human ALR oxidase inhibition via reduced H2O2 | purified ALR, DTT oxidation, H2O2 HRP-luminol luminescence | inhibition, % (no concentration beside the values) | 290,000 compounds, 3.8% hits | AID 485317;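 active = mean and each replicate at 75% or more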;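 note: stock transfer was 7.5 nL into about 7.5 µL; 0% = neutral wells and 100% = wells with inactivated enzyme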
# Vif A3G – HIV-1 Vif–A3G interaction blockers – biochemical, TR-FRET, GST-Vif 1-94, biotin-A3G peptide, dose response retest, primary screen (AID 1117319); one-dose inhibition, %; IC50 in µM for titrated hits; TR-FRET GST-Vif / biotin-A3G peptide binding; higher % means a stronger effect; test concentration not given here; strong numbers were not always called active; 260,000 compounds, 0.57% hits;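 active = above the screen mean plus three standard deviations and confirmed in dose response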;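 note: Vif residues 1-94 fused to GST binding biotinylated APOBEC3G peptide 110-148; 0% = full assay without inhibitor and 100% = GST in place of GST-Vif; retest series ran down from 100 µM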
# Ecoli growth – inhibitors of Escherichia coli growth | OD600 absorbance (test concentration not listed) | 330,000 compounds, 0.21% hits | OD600, 23 h; active compounds read low | AID 1053175;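 active = OD600 absorbance below the run mean of sample wells minus 3.6 SD, in any replicate, cut at about 0.56 in these data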;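 note: stock transfer was 300 nL into about 60 µL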
# FGF22 binding – shifts melting point of recombinant human FGF22 | Q9HCT0 | recombinant FGF22 thermal shift, SYPRO orange fluorescence; percent of sucrose octasulfate shift, DMSO zero | calls only at 9.99 µM | 340,000 compounds, 1.5% hits;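 active = melting point raised past a set limit in the mean and every replicate; three in four hits are not shown here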
# rRNA inh HTS OD600 – second read-out of rRNA inh HTS, no call of its own (marks repeat the call); OD600 change, %; measured here: OD600 growth;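 optical density of the mix in the first replicate; 0 = DMSO median and -100 = no signal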
# rRNA inh HTS RFP – also measured in rRNA inh HTS; calls as there; RFP signal change, %; measured here: RFP humanized mutant strains;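 first replicate; 0 = DMSO median and -100 = no signal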
# The depositor's hits bear a star; i = inactive; · = not tested or not shown; & = joins results of further samples. These rows are one share of the data, so the mix of outcomes need not match the whole.
SMILES,rRNA inh HTS,rRNA inh HTS OD600,rRNA inh HTS RFP,HNF4A DNA FP,AF4-AF9 inh,ALR inh,Vif A3G,Ecoli growth,FGF22 binding
CNc1c([N+](=O)[O-])cnn1-c1cccc(Cl)n1,5,2,-3.0,0.4,-0.7,7,·,0.68,i
CCOC(=O)C1CCCN(C(=O)c2cc3ccccc3cc2OC)C1 (centres undefined),1,1,1.3,0.7,7.8,·,-9%,0.69,i
COc1ccc(NC(=O)CCN2CCN(c3ccccc3F)CC2)c(OC)c1,-1,-1,0.1,7.1,-23,-10,·,0.64,i
Cc1cccc(OCCSc2nc3ccccc3n2CCC(=O)O)c1,-4,-6,-1.8,-1.6,-2.9,2,1%,0.72,i
COC(=O)c1cc(Br)c(=O)n(Cc2ccc(C(=O)O)cc2)c1,·,·,·,0.2,·,-1,0%,0.7,·
CCN(CC(=O)NCc1cccs1)C(=O)C(c1ccccc1)c1ccccc1,·,·,·,2.6,0.4,·,6%,0.63,i
O=C(OCCc1cc2ccccc2c(=O)o1)c1ccccc1C(F)(F)F,-18,-40,3.1,3.1,-1.0,-4,·,0.78,i
C[C@H](CO)N1C[C@H](C)[C@@H](CN(C)Cc2ccncc2)Oc2ccc(NC(=O)NC3CCCCC3)cc2CC1=O,-3,-12,0.9,·,4.0,·,·,·,i
O=C(NCc1cccnc1)c1cc(C2CCCCN2C(=O)c2ccccc2)on1 (centres undefined),16,17,0.1,1.8,-0.9,·,·,·,i
CC1=C(C(=O)N(C)C)C(c2ccc(Cl)c(Cl)c2)NC(=O)N1 (centres undefined),·,·,·,1.3,·,-3,0%,0.75,·
O=C(Nc1ccc(NC(=O)C2CC2)nc1)c1cccs1,·,·,·,-1.9,·,-7,-5%,0.65,·
O=C(Cn1cnc2ccccc2c1=O)Nc1nnc(SCc2ccccc2)s1,19,1,-2.1,0.8,-0.6,-6,4%,0.68,i

# Four entries already listed, arranged by SMILES length, lowest first:
SMILES,rRNA inh HTS,rRNA inh HTS OD600,rRNA inh HTS RFP,HNF4A DNA FP,AF4-AF9 inh,ALR inh,Vif A3G,Ecoli growth,FGF22 binding
CNc1c([N+](=O)[O-])cnn1-c1cccc(Cl)n1,5,2,-3.0,0.4,-0.7,7,·,0.68,i
COC(=O)c1cc(Br)c(=O)n(Cc2ccc(C(=O)O)cc2)c1,·,·,·,0.2,·,-1,0%,0.7,·
COc1ccc(NC(=O)CCN2CCN(c3ccccc3F)CC2)c(OC)c1,-1,-1,0.1,7.1,-23,-10,·,0.64,i
C[C@H](CO)N1C[C@H](C)[C@@H](CN(C)Cc2ccncc2)Oc2ccc(NC(=O)NC3CCCCC3)cc2CC1=O,-3,-12,0.9,·,4.0,·,·,·,i

# (further entries)
SMILES,rRNA inh HTS,rRNA inh HTS OD600,rRNA inh HTS RFP,HNF4A DNA FP,AF4-AF9 inh,ALR inh,Vif A3G,Ecoli growth,FGF22 binding
COc1ccc(-c2[nH]ncc2-c2ccc(Cl)cc2)c(O)c1,·,·,·,14,·,18,8%,0.69,·
C[C@@H]1CN([C@@H](C)CO)C(=O)c2cccc(NC(=O)Nc3cccc4ccccc34)c2O[C@H]1CN(C)C(=O)Nc1ccccc1,-10,-19,-4.1,·,-0.1,·,·,·,i
Cc1cc(C(=O)CN2C(=O)C(=O)N(Cc3ccccc3)C2=O)c(C)n1Cc1ccc(F)cc1,4,10,-0.3,0.8,4.3,-8,-17%,0.68,i
CCCNC(=O)Nc1ccc2c(c1)OC[C@@H](C)N(C(=O)C1CCOCC1)C[C@H](C)[C@@H](OC)CN(C)C2=O,2,1,-1.1,·,-3.2,·,·,·,i
O=C1CCCc2cnnn2COC[C@@H](c2ccccc2)N1,2,-2,-1.5,·,4.0,·,·,·,i
CCCCN(C(=O)c1cccs1)C1CCS(=O)(=O)C1 (centres undefined),11,-1,-0.3,-7.7,-2.5,1,-9%,0.68,i
CC(=O)N(C)C[C@H]1Oc2ncc(-c3cccnc3)cc2C(=O)N([C@H](C)CO)C[C@@H]1C,1,-4,-3.1,·,-3.0,·,·,·,i
Clc1ccc2nc(CSc3nc4ccccc4o3)cn2c1,·,·,·,-1.2,·,-1,-6%&-4%,0.66,·
CCN(CC(=O)Nc1c(F)cccc1F)C(=O)C1CC1C (centres undefined),14,17,6.2,2.6,-1.1,-32,5%,0.72,·
O=C(N[C@H]1CC1c1ccccc1)c1ccc([N+](=O)[O-])cc1 (some centres undefined),-28*,0.5*,4.0*,1.5,-1.8,-9,6%,0.59,i
COc1cc2ccccc2cc1C(=O)OCc1nc2ccsc2c(=O)[nH]1,8,7,3.5,-0.5,-1.4,-5,18%,0.68,i
CC(C)(C)OC(=O)NCCCCCNC(=O)c1[nH]cnc1C(=O)Nc1ccc(Cl)cc1,-11,-17,25,0.1,-1.0,0,·,0.69,i
Fc1ccc(/C=N/Nc2cc(N3CCOCC3)ncn2)cc1,11,12,2.3,-4.2,-2.3,·,·,·,i
O=C(CCN1c2ccccc2Sc2ccccc21)Nc1ccccc1,·,·,·,-0.1,·,63,5%,0.73,·
O=C(OCC(=O)c1ccc[nH]1)c1cncc(Br)c1,0,-3,6.6,-5.2,10,2,·,0.64,i
Cn1nnc(NC(=S)NC(=O)c2cccc3c(Cl)cccc23)n1,1,9,-0.8,-0.6,-0.2,3,·,·,i
COc1ccc(C(c2nnnn2C(C)(C)C)N2CCN(c3nc4ccccc4s3)CC2)cc1OC (centres undefined),·,·,·,-0.1,·,·,0%&7%,0.75,·
CC(C)NC(=O)Nc1ccc2c(c1)C(=O)N([C@@H](C)CO)C[C@H](C)[C@@H](CN(C)S(C)(=O)=O)OCCCC[C@H](C)O2,3,5,-0.4,·,-8.6,·,·,·,i
CCCCC[C@@H]1C=C(C(=O)O)[C@H](c2ccc(F)cc2)N1S(=O)(=O)c1ccc(C)cc1,-7,-14,-1.8,3.7,-0.4,·,-9%,0.68,i
CCCCNC(=O)C1(C)CCC(=O)N1CCOc1ccccc1 (centres undefined),-2,-1,-1.0,-1.8,-4.2,·,·,·,i
CN(C)C(=O)c1cnc(Cc2c[nH]c3ccccc23)c(I)c1,-3,-8,-2.3,0.5,2.2,·,·,·,i
CCOC(=O)Nc1sc2c(c1C(N)=O)CCC(C)C2 (centres undefined),·,·,·,3.0,·,-9,·,0.74,·
COc1ccc(N2CCN(c3ccc(NC(=O)c4ccc5c(c4)OCO5)cc3C#N)CC2)cc1,·,·,·,2.3,·,·,-3%,0.77,·
Cc1cccc(C)c1Nc1c(-c2ccc(N3CCOCC3)cc2)nc2ncccn12,-25*,-19*,-1.1*,7.0,16,·,5%,0.71,i
O=S(=O)(Nc1ccc(-n2cccc2)cc1)c1ccccc1,·,·,·,-3.7,·,3,2%,0.7,·
COc1ccc(CCNC(=O)c2ccc3c(c2)S(=O)(=O)N=C2CCCCCN23)cc1,-6,-11,0.1,1.6,3.3,·,10%,0.68,i
O=c1c2ccccc2nnn1CSc1nnc(COc2ccc(Cl)cc2)n1Cc1ccco1,·,·,·,-1.6,·,6,-8%,0.65,·
Cc1ccccc1NC(=O)Cc1nc(COC(=O)c2cc(Cl)ccc2O)cs1,5,4,-0.8,1.1,-0.6,-7,·,0.72,i
Cn1c(=O)c(-[n+]2ccccc2)c([O-])c2ccccc21,·,·,·,-2.3,·,24,6%,0.72,·
O=C(Nc1nc2c(cc3c4c(cccc42)CC3)s1)c1ccccc1Cl,-1,12,-1.9,-3.3,-1.9,-4,·,0.74,i
Cc1ccc(CN2CCN(C(=O)c3ccco3)CC2)cc1,·,·,·,1.0,·,-2,-2%,0.67,·
CCCNC(=O)N(C)C[C@H]1Oc2cc(C#C[C@@H](C)O)ccc2S(=O)(=O)N([C@H](C)CO)C[C@H]1C,2,14,1.9,·,-1.5,·,·,·,i
C[C@H](CO)N1C[C@H](C)[C@@H](CN(C)Cc2ccc(C(=O)Nc3ccccc3N)cc2)Oc2ccc(NC(=O)Nc3ccc4c(c3)OCO4)cc2CC1=O,-3,-8,-3.9,·,1.4,·,·,·,i
O=C(N[C@@H]1CCC(=O)N(CC[C@H](Sc2ccccc2)c2ccccc2)CC1)OCc1ccccc1,3,0,0.6,-3.9,-10,4,·,0.76,i
COCC#Cc1cnc2c(c1)C(=O)N([C@H](C)CO)C[C@@H](C)[C@H](CN(C)S(=O)(=O)c1cccc(OC)c1)O2,-2,4,1.0,·,1.9,·,·,·,i
CC(C)NC(=O)N[C@H]1CC[C@@H](CC(=O)NCCN2CCCC2)O[C@H]1CO,-1,-2,-1.3,·,0.0,·,·,·,i
Cc1ccc(CSCC(=O)N(C)CC(=O)Nc2cccc(F)c2)cc1,-18,-15,-3.9,-2.3,-0.3,-16,2%,0.65,·
COc1ccc(OCc2cc(C(=O)N3CCSCC3)no2)c(Cl)c1,-29*,-19*,-3.4*,1.8,-1.1,-2,0%,0.7,i
COc1ccc(NC(=O)CN(C)C(=O)c2c(C)nn(Cc3ccc(C)cc3)c2Cl)cc1,-2,0,0.7,-1.8,-4.5,8,0%,0.68,i
CC1CCC(NC(=O)CCC(=O)N2CC(C)Oc3ccccc32)CC1 (centres undefined),-5,-14,-1.3,3.5,-1.8,·,-3%,0.75,i
CCOc1ccc(C(=O)CCC(=O)Nc2ccncc2)cc1,10,7,1.6,-2.8,0.3,2,7%,0.68,i
CCSc1nnc(NC(=O)c2cccc(OCc3c(C)noc3C)c2)s1,·,·,·,0.0,·,-3,-4%,0.66,·
CCN(C(=O)c1ccncc1)c1c(N)n(Cc2ccccc2)c(=O)[nH]c1=O,3,9,-0.9,6.3,-19,·,5%,0.67,i
CC(C1CC1)N(C(=O)c1ccccc1[N+](=O)[O-])c1ccccc1 (centres undefined),5,1,-1.4,-0.1,0.5,-22,-3%,0.69,i
CCOC(=O)CC1C(=O)NCCN1C(=O)c1cccc(OC)c1 (centres undefined),17,26,1.8,3.9,-13,1,-4%,0.68,i
Cc1ccc(NC(=O)CSc2n[nH]c(-c3ccncc3)n2)cc1C,·,·,·,3.0,·,-6,3%,0.65,·
Cc1ccccc1OCCOCCN1CCCCCC1,1,-3,0.5,3.1,5.3,·,0%,0.63,i
C[C@H]1CN([C@@H](C)CO)C(=O)c2cc(/C=C/c3ccccc3)cnc2O[C@@H]1CN(C)C(=O)c1ccc(F)cc1,-4,-36,29,·,13,·,·,·,i
CCNC(=O)Nc1ccc2c(c1)C(=O)N(C)[C@@H]1CC[C@H](CC(=O)NCc3ccc(F)cc3)O[C@H]1CO2,0,3,-2.7,·,-1.7,·,·,·,i
O=C(NCc1cccs1)c1cnc2sccn2c1=O,11,11,-0.1,0.3,-3.7,-2,0%,0.72,i
CN1c2ccc(-c3ccccc3)cc2[C@@H]2[C@@H](CCN2S(=O)(=O)c2ccccc2F)[C@@H]1CO,-2,1,3.9,·,1.0,·,·,·,i
CC(=O)c1cccc(N/C=C\C(=O)c2ccc(C)cc2)c1,·,·,·,3.0,·,·,1%,0.7,·
CCn1c(SCC(=O)c2[nH]c(C)c(C(C)=O)c2C)nnc1-c1ccncc1,-11,-6,-2.8,0.3,-26,11,13%,0.69,i
C=CCN1CCN(C(c2ccc(OC)c(OC)c2)c2nnnn2C(C)(C)C)CC1 (centres undefined),·,·,·,-2.5,·,·,25%,0.71,·
C[C@H]1CN([C@@H](C)CO)C(=O)c2cc(-c3cncnc3)cnc2O[C@H]1CN(C)CC1CCOCC1,6,5,-0.1,·,-3.0,·,·,·,i
Nc1ccc(S(=O)(=O)Nc2nc3ccccc3o2)cc1,7,7,-4.0,0.1,1.7,18,·,0.64,i
Cc1nc(N)sc1-c1csc(Nc2ccc(S(N)(=O)=O)cc2)n1,6,-6,0.7,10,8.1,-7,0%,0.68,i
